Vaccinia mCherry = qHTS for Stage-Specific Inhibitors of Vaccinia Orthopoxvirus: mCherry Reporter Primary qHTS. actives 0.63% (n = 310,000). Potency, µM (titrated, usually from 36.5 µM), for inactives: top-dose activity change, negative = inhibition, usual class: inhibitors. Vaccinia virus mCherry reporter infection, fluorescence; about a quarter of the inactives have no number. AID 720579, 2013; active = well fitted inhibition curve with a large enough effect; inconclusive = small, poorly fitted or top-dose-only effect; inactive = no such curve, though single readings can be large or run the other way; tested in A549 cells; note: nearly all actives have a fitted effect of over 35% in size; inactives centre near -10
Vaccinia Venus = qHTS for Stage-Specific Inhibitors of Vaccinia Orthopoxvirus: Venus Reporter Primary qHTS | Vaccinia virus Venus reporter expression, fluorescence | Potency, µM (highest dose often 36.5 µM), for the others: top-dose activity change, negative = inhibition, hits mostly inhibitors | AID 720580, 2013 | actives 0.46% (n = 330,000); active means well fitted inhibition curve with a large enough effect; inconclusive means small, poorly fitted or top-dose-only effect; inactive means no such curve, though single readings can be large or run the other way; tested in A549 cells; note: nearly all actives have a fitted effect of over 30% in size; inactives centre near -10
Starred values were filed as active, the others as inactive; i = inactive; ? = inconclusive; · = no result given; & = joins results of further samples; [ ] = remark or other dose. % is set by controls: 0 for no effect and ±100 for the full control effect; potency is the fitted concentration of half-maximal effect.

Below each compound – Vaccinia mCherry, Vaccinia Venus
> CCCNC(=O)N1C2=NC(C(=O)OC)=C(C(=O)OC)[C@@H]3N(Cc4ccccc4)c4ccccc4[C@]23C[C@H]1CO
 : ?, ?
> COc1ccc(C(C#N)c2cnccn2)cc1OC (stereo not drawn)
 : i, -5%
> O=C(c1sc2ccccc2c1Cl)N(Cc1cccs1)C1CCS(=O)(=O)C1 (stereo not drawn)
 : -20%, -13%
> Cc1ccc(C2OC3=C(C(=O)CC(C)(C)C3)C(N)=C2C#N)o1 (stereo not drawn)
 : 1%, 3%
> CCCN1CCC(=O)N([C@H](CSc2ccccc2)CC(C)C)CC1
 : -1%, -6%&-20%
> O=C(NC(=S)N1CCN(c2ccc(F)cc2)CC1)c1ccccc1
 : -10%, -22%
> COC(=O)c1[nH]c2cc(OC)ccc2c1NC(=O)CCN1CCN(c2cccc(C)c2C)CC1
 : ·, ?
> COc1ccc(-c2cc(C(F)(F)F)nc(SCC(=O)NCCN3CCOCC3)n2)cc1OC
 : i, -5%
> CC(C)NC(=O)N[C@H]1C=C[C@H](CC(=O)NCc2ccc(Oc3ccccc3)cc2)O[C@@H]1CO
 : -20%, -14%
> O=[N+]([O-])c1ccc(-c2nc(NCc3ccccc3)c3ccccc3n2)cc1
 : i, -9%
> CCOc1ccc(CNCc2c(C(=O)O)c(C)n(Cc3ccc(C)cc3)c2C)cc1
 : -7%, -6%
> COC1=C(OC)C(=O)C(C/C=C(\C)CC/C=C(\C)CC/C=C(\C)CC/C=C(/C)CC/C=C(\C)CC/C=C(\C)CC/C=C(\C)CC/C=C(\C)CC/C=C(\C)CCC=C(C)C)=C(C)C1=O
 : -13%, -6%
> C=CCn1c(NC(=O)c2ccco2)nc2ccccc21
 : -18%, -16%
> Cc1c(C)c(C)c(CO/N=C/c2cccs2)c(C)c1C
 : -20%, -13%
> CCOC(=O)c1ccc(NC(=S)N2CCSC2c2ccc(Br)cc2)cc1 (stereo not drawn)
 : -13%, -9%
> COc1ccc(NC(=S)NC(NC(=O)CCl)C(Cl)(Cl)Cl)c([N+](=O)[O-])c1 (stereo not drawn)
 : -14%, -20%
> COc1ccc(Nc2nc(N3CCN(C)CC3)nc3ccccc23)c(OC)c1
 : -17%, ?
> Cc1ccc(/C=C/C2=NN(C)C(=O)CC2)cc1
 : -14%, -21%
> COc1ccccc1C(=O)NC(=O)CSc1nc2nc(C)cc(C)n2n1
 : -18%, -7%
> CCCN1CNc2c(c(=O)[nH]c(=S)n2CCc2cc(Cl)cc(Cl)c2)C1
 : 0%, -8%
> CC1(C(=O)NCc2ccccc2)CCC(=O)N1C1CC1 (stereo not drawn)
 : 5%, -4%
> O=C(Cc1ccc(NC(=O)C2CCCN(C(=O)C3CCC3)C2)cc1)Nc1cccc(C(=O)N2CCCCC2)c1 (stereo not drawn)
 : i, -13%
> CC(C)(C)OC(=O)NCCCCCc1nnc(SCc2ccccc2)o1
 : -11%[7.34 µM], -8%[7.34 µM]
> O=C(CCc1nc(CN2CCN(S(=O)(=O)c3ccc(Cl)cc3)CC2)no1)N1CCCCC1
 : -10%, -12%
> OC1CN=C2CCCc3c2n(c2ccc(Cl)cc32)C1 (stereo not drawn)
 : ?, -29%
> NCCOc1ccccc1-c1ccccc1
 : ·, -4%
> COc1ccc(S(=O)(=O)NNC(=O)Nc2ccccc2OC)c(OC)c1
 : -21%, 0%
> O=[N+]([O-])c1ccc(Cl)cc1CN1CCCCCC1
 : -10%, -2%
> COc1ccc(CCn2c(-c3cccc([N+](=O)[O-])c3)nc3nc4ccccc4nc32)cc1OC
 : i, -2%
> C[C@H](O)CC1=C[C@H](O)[C@@H](C)OC1=O
 : 12%, 7%
> CCOC(=O)N1CCN(S(=O)(=O)c2ccc(F)c(C(=O)Nc3ccc(C)c(Cl)c3)c2)CC1
 : -1%, -15%
> CCCC(c1nnnn1Cc1ccc(OC)cc1)N1CCC(C(N)=O)CC1 (stereo not drawn)
 : ·, -13%
> O=C(CCCOc1ccccc1)Nc1ccc(S(=O)(=O)Nc2ccccn2)cc1
 : i, -9%
> CCn1cc(/C=N\NC(=O)c2cc(-c3ccccc3OC)nc3ccccc23)c(C)n1
 : -19%, -3%
> COc1ccccc1NS(=O)(=O)c1ccc(C)c(NC(=O)c2ccc(S(=O)(=O)N3CCCCCC3)cc2)c1
 : -30%, -26%
> S=c1[nH]nc(-c2cc(-c3ccccc3)n[nH]2)n1/N=C/C=C/c1ccco1
 : -4%[7.34 µM], -1%[7.34 µM]
> Cc1ccc(S(=O)(=O)N(C)C[C@H]2Oc3cc(C#CC4CCCC4)ccc3S(=O)(=O)N([C@H](C)CO)C[C@H]2C)cc1
 : -23%, -23%
> Fc1ccccc1NC(=S)NCCc1ccc(Cl)cc1
 : i, -17%
> OC[C@H]1O[C@@H](c2nc(-c3ccc4[nH]ccc4c3)no2)[C@H](O)[C@@H](O)[C@H]1O
 : 4%, 1%
> COc1ccc(-c2nnc3cccc(Cl)n23)c(OC)c1
 : -13%, -14%
> CCOC(=O)C(=Nc1ccccc1)NO
 : -11%, -12%
> CCc1nnc(NS(=O)(=O)c2ccc(N/C=C(\C=O)c3nc4cc(Cl)ccc4o3)cc2)s1
 : -9%, -10%
> O=C(CCC(=O)N/N=C/c1ccccc1O)NCc1ccccc1
 : ?, ?
> CC(C)(C)c1nc(CN2CCCCC2)cc(CN2CCCCC2)c1O
 : -6%, -24%
> CC1CCN(C(c2ccc(N(C)C)cc2)c2nnnn2Cc2ccc(F)cc2)CC1 (stereo not drawn)
 : ·, -19%
> COc1cccc(/C=N/Nc2nc3ccccc3n3cnnc23)c1
 : -5%, 1%
> CCN(CC)C(=O)c1ccc(S(=O)(=O)NCc2cccnc2)cc1
 : -7%, -23%
> COC(=O)c1ccc(C(=O)OC)c(NC2=NS(=O)(=O)c3ccccc32)c1
 : i, -13%
> COc1ccc(N2CCN(C(CNC(=O)C(=O)NCc3ccc4c(c3)OCO4)c3ccco3)CC2)cc1 (stereo not drawn)
 : -25%, -4%
> CCCc1ccc(C(=O)NNc2cccc(C)c2)cc1
 : ?, 1%
> CC(C)OCCCNC(=O)Cn1ncc2c(=O)oc3ccccc3c21
 : -21%, -18%
> Clc1ccc(CSc2cc3c(nn2)-c2ccccc2CC3)cc1
 : ·, 1%
> O=C(C1CCC(Cn2c(=S)[nH]c3ccccc3c2=O)CC1)N1CCN(c2ccccn2)CC1 (stereo not drawn)
 : -11%, -9%
> CCCS(=O)(=O)NC(=O)C1(C)CCCN(C(=O)c2cccnc2Oc2ccccc2)C1 (stereo not drawn)
 : i, -8%
> S=c1[nH]nc(COc2ccc(Cl)cc2)n1-c1ccc(Cl)cc1
 : -8%, ?
> Cc1cc(C)c[n+](-c2[nH]c(=O)sc2/C=N/N=C(\N)[S-])c1
 : i, -17%
> O=C(c1ccc(C(F)(F)F)cc1)N1CCN(c2ccc(N3CCOCC3)nn2)CC1
 : -20%, -14%
> Nc1nc(-c2cc3ccccc3o2)cs1
 : ?, -17%
> CCOc1cc(NC(=O)C2CC2)c(OCC)cc1NC(=O)CCn1nnc2ccccc21
 : -9%, -1%
> COC(=O)C1=NN[C@H](C(=O)OC)[C@H]1c1ccccc1
 : -18%, -14%

Other entries follow.
Below each compound – Vaccinia mCherry, Vaccinia Venus
> COc1cccc(C(=O)OC2CCN(C)CC2)c1
 : -5%, -14%
> CCCNS(=O)(=O)c1ccc(N2CCCC2=O)c([N+](=O)[O-])c1
 : -15%, -1%
> COc1cccc(NC(=O)CN(C)C(=O)c2ccc(S(=O)(=O)Nc3ccccc3F)cc2)c1
 : -9%, 0%
> CC1(C)C(/C=C/C=C/C=C/C=C2\N(CCCCS(=O)(=O)O)c3ccc4ccccc4c3C2(C)C)=[N+](CCCCS(=O)(=O)[O-])c2ccc3ccccc3c21
 : -3%, 1%
> COc1cc(=O)n2c(c1C(=O)N(C)Cc1nccs1)CCN(Cc1cc3ccccc3s1)CC2
 : -4%, 0%
> Cc1nc2ccccc2c(=O)n1-c1ccc(C(=O)O)cc1
 : 3%[7.34 µM], 7%[7.34 µM]
> Cc1ccc(C(=O)NN2CC(O)=C(c3nc(-c4cccc([N+](=O)[O-])c4)cs3)C2=N)cc1
 : -5%, -10%
> C/C(N)=C(/C#N)C(=O)COC(=O)c1cccc(O)c1
 : i, -17%
> Cc1ccc(-n2nc(C(=O)NCCc3cccc(C)c3)c3c4ccccc4n(C)c3c2=O)cc1
 : -20%, -16%
> Cc1cccc(NC(=O)C2CC(O)CN2C(=O)Oc2ccccc2)c1 (stereo not drawn)
 : -12%, -2%
> COC(=O)C1CCN(C(=O)COC(=O)c2ccc(=O)n(Cc3ccccc3)n2)CC1
 : -11%, 2%
> COc1cccc(CNC(=O)CN2C(=O)CSc3ccc(S(=O)(=O)N(C)C)cc32)c1
 : -12%, 2%
> COCc1ccc(C(=O)N2CCCC(Nc3ccc(F)c(F)c3)C2)s1 (stereo not drawn)
 : -12%, -11%
> CC1CCN(S(=O)(=O)c2ccc3ncn(CC(=O)N4CCN(C)CC4)c(=O)c3c2)CC1
 : -3%, -8%
> O=C(COC(=O)c1ccc2c(c1)OCCO2)Nc1ccc(F)cc1F
 : i, -5%
> O=C(CCCc1c[nH]c2ccccc12)Nc1ccc(S(=O)(=O)Nc2ncccn2)cc1
 : i, -3%
> O=C(Cn1cnc2c(OCc3ccccc3)ncnc21)NCc1ccccc1
 : -6%, -18%
> Cc1cc(C)cc(-n2c(SCC(=O)N3CCc4ccccc43)nc3c([nH]c4ccccc43)c2=O)c1
 : 9%, 7%
> COc1cc2ccnc(C=O)c2cc1OC
 : i, -5%
> COc1ccc(Cc2ccccc2C(=O)O)cc1
 : i, -18%
> Cc1nnsc1C(=O)N/N=C/c1ccc(OC(F)(F)F)cc1
 : i, -7%
> CCCP(=O)(CC(=O)N(CC)CC)c1ccccc1 (stereo not drawn)
 : -10%[1.46 µM], -16%
> Cc1ccc(-c2csc(NC(=O)Cn3cnc4c3c(=O)n(C)c(=O)n4C)n2)cc1C
 : -10%, -3%
> O=S(=O)(Cc1ccccc1Cl)N1CCCCC1
 : -22%, -14%
> Cc1nnc(NC(=O)c2cccn(Cc3cccc(Cl)c3)c2=O)s1
 : -6%, -7%
> CC(C)NC(=O)c1ccc(COc2cccc3ccccc23)o1
 : -26%, -22%
> Cc1ccc(-c2c(C)sc3nc[nH]c(=O)c23)cc1C
 : -9%, -21%

Compound activity (PubChem BioAssay)
